eIF4H FP inh: human eIF4H binding inhibitors, primary screen, translation initiation inhibitor project, biochemical, uHTS, fluorescence polarization | Eukaryotic translation initiation factor 4H (Homo sapiens), Q15056 | eIF4H fluorescence polarization binding assay | inhibition, % at 35 µM | actives 0.94% (n = 290,000);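 active = 50% or more with normal probe brightness, or confirmed in later tests; about a fifth of its hits are not listed in these tables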;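 note: calls also rest on retests at 20 µM and on dose response follow-up; 0% = protein and probe with vehicle and 100% = probe without protein; strong numbers were not always called active; many hits fall short of the cut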
MT1-MMP act inh: blockers of MT1-MMP proenzyme processing, primary screen, HT1080 RFP-PRO-GFP cells, GFP/RFP fluorescence; actives 0.061% (n = 360,000); GFP/RFP ratio fluorescence, overnight; percent of plate control window, DMSO zero; Matrix metalloproteinase-14 (Homo sapiens), P50281; GFP/RFP ratio change, % at 20 µM;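 active = GFP/RFP ratio change of at least 30% with cell ATP level not reduced by more than half and red fluorescence within 50% of control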; note: strong numbers were not always called active
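Test system: HT1080 RFP-PRO-GFP cells; Benchmarks: DMSO and RFP-L50D-GFP cell wells; Timing: cells overnight before dosing, compound overnight, 37 °C, 5% CO2; Compound: one 20 µM compound dose with 1% DMSO; Read-out: GFP/RFP fluorescence ratio.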
Yeast UUG start: modulators of yeast start codon fidelity, primary screen, whole organism, S. cerevisiae, single point, plate reader | actives 0.13% (n = 350,000) | S. cerevisiae UUG-firefly luciferase reporter, luminescence/redox ratio | activity score, % at 18.7 µM;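 active = replicate mean at a twofold rise or more, about +100% in these data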;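 note: firefly luciferase made from a UUG start codon reports start codon fidelity; reporter light over untreated wells divided by growth signal over untreated wells; some hits fall short of that in this replicate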
Env fusion inh: inhibitors of HIV-1 Env-driven cell-cell fusion, primary screen, HeLa-JRFL effector, CEM21 target cells, luciferase; AID 651610, 2012; inhibition, % at 12.3 µM; actives 1.1% (n = 360,000);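 active = mean replicate inhibition score of at least 50 and every replicate individually at or above 50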;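 note: 0% = plate neutral controls and 100% = maraviroc near 300 nM; one replicate is shown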
Rce1 inh: yeast Rce1p protease inhibitors, primary screen, biochemical, fluorescence, cell-free homogeneous. CAAX prenyl protease 2 (Saccharomyces cerevisiae (strain ATCC 204508 / S288c)), Q03530. yeast membranes, quenched prenylated peptide cleavage fluorescence. calls only. actives 0.27% (n = 290,000). AID 2563, 2010;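 active = fall in fluorescence gain of 50% or more versus controls, with final raw signal at or below 3038400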;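 note: plate controls were neutral control wells for no effect and wells lacking membranes for full effect; tested at 10 µM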
Target sequence (Q03530 whole entry, looked up): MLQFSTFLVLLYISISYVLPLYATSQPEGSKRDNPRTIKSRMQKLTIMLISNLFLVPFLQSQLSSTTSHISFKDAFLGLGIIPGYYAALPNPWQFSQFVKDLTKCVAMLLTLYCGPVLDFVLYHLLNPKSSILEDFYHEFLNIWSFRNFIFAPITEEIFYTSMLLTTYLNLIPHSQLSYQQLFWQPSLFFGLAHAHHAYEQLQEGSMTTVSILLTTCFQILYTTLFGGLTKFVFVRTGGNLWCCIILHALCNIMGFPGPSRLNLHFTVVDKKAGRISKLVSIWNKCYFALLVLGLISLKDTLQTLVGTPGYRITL
PABP FP inh: PABP poly(A) RNA binding inhibitors, primary screen, biochemical, fluorescence polarization, uHTS. Polyadenylate-binding protein 1 (Homo sapiens), P11940. inhibition, % at 35 µM. actives 1% (n = 290,000);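 active = 50% or more with normal probe brightness, or confirmed in later tests; about a fifth of its hits are not listed in these tables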;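 note: calls also rest on retests at 20 µM and on dose response follow-up; controls were probe without protein and protein plus probe with vehicle; some compounds called inactive have numbers as strong as hits; many hits fall short of the cut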
Target sequence (P11940 whole entry, looked up): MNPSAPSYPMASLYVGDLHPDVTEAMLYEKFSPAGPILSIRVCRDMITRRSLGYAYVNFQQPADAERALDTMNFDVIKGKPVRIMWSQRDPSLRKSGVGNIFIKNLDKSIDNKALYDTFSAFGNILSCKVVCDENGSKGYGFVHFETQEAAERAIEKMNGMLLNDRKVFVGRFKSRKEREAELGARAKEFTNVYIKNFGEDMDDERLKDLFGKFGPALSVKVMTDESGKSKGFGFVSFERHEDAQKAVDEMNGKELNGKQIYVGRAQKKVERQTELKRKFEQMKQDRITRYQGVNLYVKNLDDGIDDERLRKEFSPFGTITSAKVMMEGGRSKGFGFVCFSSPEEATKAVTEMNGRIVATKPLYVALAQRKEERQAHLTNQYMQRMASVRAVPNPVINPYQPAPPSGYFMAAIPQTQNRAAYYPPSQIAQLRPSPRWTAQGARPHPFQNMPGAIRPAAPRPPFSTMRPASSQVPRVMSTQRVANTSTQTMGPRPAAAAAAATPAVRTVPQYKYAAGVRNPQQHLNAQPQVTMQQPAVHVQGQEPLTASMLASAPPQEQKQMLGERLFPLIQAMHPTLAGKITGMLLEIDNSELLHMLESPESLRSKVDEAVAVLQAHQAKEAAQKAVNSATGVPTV
CSC inhib: cancer stem cell viability inhibitors, primary screen, luminescence. inhibition, % at 7.5 µM. actives 1.1% (n = 300,000). cancer stem cell-like cells viability;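 active = mean at 75% or more and at least half the replicates too; tested in HMLE shEcad cells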;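 note: 0% = median of negative and 100% = median of positive control wells; the first replicate is given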
eIF4H FP inh retest: recorded beside eIF4H FP inh, whose call it bears; inhibition, %; compound at 20 µM; confirmation average;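 mean of two retest wells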
PABP FP inh retest: second read-out of PABP FP inh, no call of its own (marks repeat the call); inhibition, %; compound at 20 µM; confirmation repeats;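 mean of two retest wells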
MT1-MMP act inh RFP: second read-out of MT1-MMP act inh, no call of its own (marks repeat the call); RFP signal change, %; measured here: RFP expression control read;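 0 = vehicle wells; hits needed this value within 50% of zero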
Starred values were filed as active, the others as inactive; i = inactive; . = not tested or not shown. The list is partial. The share of hits here may be higher or lower than overall.

SMILES	eIF4H FP inh	MT1-MMP act inh	MT1-MMP act inh RFP	Yeast UUG start	Env fusion inh	Rce1 inh	PABP FP inh	CSC inhib	others
COc1ccccc1N1CCN(C/C(C)=C/c2ccccc2)CC1	-3	5	-1	-2	14	i	-10	3
O=C(COC(=O)c1ccco1)NC(c1ccccc1)c1ccccc1	-3	1	3	.	-2	i	-12	7
CCNC(=O)COc1cc(C)c(Cl)c(C)c1	-16	-4	-2	-12	i	i	-6	-14
CN(C)CCCn1c2c(c(SCC(=O)Nc3ccc4c(c3)OCCO4)nc1=O)CCCC2	.	0	6	-22	-17	.	.	.
COC(=O)c1cc(OC)c(OC)cc1NCC(=O)Nc1ccc(C)cc1	-10	1	-1	-9	.	i	-1	-4
O=C(NCCC1=CCCCC1)c1c(O)nc2sccn2c1=O	.	-1	-10	-4	12	i	.	10
CCc1n[nH]c(=O)c2cc3cc(OC)ccc3n12	-7	0	4	-11	-24	i	-6	-7
CC(Oc1cccc(Cl)c1)C(=O)Nc1ccc(S(=O)(=O)Nc2ncccn2)cc1 (stereo unspecified)	.	-3	6	1	.	i	.	-9
O=C(COC(=O)c1cc(=O)c2ccccc2o1)NC1CCCC1	2	-1	2	.	1	i	9	-4
CCN(CC)c1ccc(/C=N/NC(=O)c2cccc(S(=O)(=O)Nc3ccccc3OC)c2)cc1	52*	-3	1	.	15	i	16	13	eIF4H FP inh retest=60*;PABP FP inh retest=35
Nc1ncc(Br)cc1S(=O)(=O)NCCC(=O)N1CCN(c2ncccn2)CC1	-8	4	8	0	1	i	-8	-9
Cc1ccc(NC(=O)CN(C)C(=O)COc2c(Cl)cc(Cl)c3ccc(C)nc23)cc1	-7	4	2	.	22	i	-20	-2
c1cnc2c(OCc3nc4ccccc4[nH]3)cccc2c1	13	7	8	-18	.	i	16	.
COc1cccc(C2NC(C)(C(=O)O)C3C(=O)N(C(C)C)C(=O)C23)c1O (stereo unspecified)	-1	-3	-2	-16	-6	i	2	-19
COc1ccc(CC(=O)N2CCc3ccccc3C2)cc1	-14	-2	-2	-5	-5	i	-1	6
COC(=O)C(Cc1ccc(O)cc1)NC(=O)CCc1nc2ccccc2s1 (stereo unspecified)	-3	-1	5	-17	13	i	12	-9
COc1ccc(S(=O)(=O)c2snnc2C)cc1	-2	-1	1	-7	-5	i	-1	.
O=C(CSc1ccc(Cl)cc1)Nc1ccc(N2CCN(c3ccccc3)CC2)c(F)c1	-6	2	2	1	.	i	-6	-1
COc1cccc(C(=O)Nc2cccc(NC(=O)c3cccs3)c2)c1	-11	5	4	-11	5	i	-4	-6
O=C(CCl)Nc1cccc(S(=O)(=O)NC2=NCCC2)c1	-11	4	-1	.	-22	i	-5	-2
CC1CN(C(=O)c2ccccc2Sc2ccccc2C#N)CC(C)O1 (stereo unspecified)	-1	0	1	6	-7	i	-4	-6
Cc1ccc(C(C)NC(=O)c2cc3cc(Br)ccc3oc2=N)cc1 (stereo unspecified)	2	-2	0	-7	-10	i	4	21
COc1ccc(CCNc2nc3c(c(=O)n(C)c(=O)n3C)n2C)cc1OC	1	-2	-2	-24	25	.	-2	-6
CNC(=O)N(O)C1N(/N=C/c2ccc(N(C)C)cc2)C(=S)SC1(C)C (stereo unspecified)	-11	2	2	-19	13	i	-7	-20
COc1ccc(S(=O)(=O)N2CCOC2CNC(=O)C(=O)NCCc2ccccc2)cc1OC (stereo unspecified)	4	1	-4	6	.	i	0	-7

More entries follow.
SMILES	eIF4H FP inh	MT1-MMP act inh	MT1-MMP act inh RFP	Yeast UUG start	Env fusion inh	Rce1 inh	PABP FP inh	CSC inhib	others
COc1ccc(OC)c(NC(=O)CC2C(=O)NCCN2C(=O)Nc2cccc(Cl)c2)c1 (stereo unspecified)	-13	3	8	-8	8	i	-6	4
NNC(=O)CC1=NNC(=O)C1	.	5	7	-19	33	.	.	.
O=C(CCNC(=O)c1ccco1)Nc1ccc(Cl)cc1F	-2	2	7	-13	-4	.	-10	-11
O=C(NC(=S)NC1CCSC1=O)c1ccccc1F (stereo unspecified)	0	-6	6	-3	.	i	27	-11
CCOC1=C2CN(S(=O)(=O)c3ccc(C)cc3)[C@H](c3ccccc3)C[C@H]2[C@H]2C(=O)N(c3ccccc3)C(=O)[C@H]2C1	.	4	2	-16	-5	.	.	.
CCOc1ccc(NC(=O)C(CC)n2nc(C)c3c(C)n(-c4ccccc4)nc3c2=O)cc1 (stereo unspecified)	-4	2	-1	-4	10	i	1	-7
C=CCNC(=O)CN1c2cccc3cccc(c23)S1(=O)=O	2	-3	0	-18	-6	i	14	.
Cc1ccc(N(Cc2ccccc2)C(=O)c2cccc(S(=O)(=O)N3CCN(C)CC3)c2)cc1	.	0	0	-13	-2	i	.	-17
Cn1nc(C(=O)OCC(=O)Nc2ccc(SC(F)F)cc2)c2ccccc2c1=O	.	2	0	-9	12	.	.	-3
Cn1ncc2c(NNC(=O)c3ccc(Cl)c(Cl)c3)ncnc21	-2	7	5	-19	-27	i	-11	1
COc1cc(S(=O)(=O)NCc2ccccc2)ccc1-n1cnnn1	1	1	1	-14	6	i	-6	-1
CCC(=O)N1CCC1(C)C(=O)Nc1cc(-c2ccccc2)nn1C (stereo unspecified)	.	2	7	-17	-25	.	.	.
COc1ccccc1NC(=O)N1CCCC(C(=O)Nc2cccc(C)c2C)C1 (stereo unspecified)	-2	4	-1	-15	-13	i	-2	2
COc1ccc(CC(=O)Nc2cccc(-c3cn4ccccc4n3)c2)cc1	-15	6	-3	.	.	i	7	-2
CN(C)CCn1c(NCc2ccc3c(c2)OCO3)nc2ccccc21	-4	1	-2	-20	15	i	1	.
N#Cc1nc(-c2ccccc2F)oc1NC1CCCCC1	-11	0	-4	3	13	i	0	6
CCOc1ccccc1NC(=O)NNS(=O)(=O)c1cc(OC)ccc1OC	-8	-1	3	3	11	i	12	-6
Cc1cccc(C(=O)NCc2nnc(SCC(=O)N3CCN(c4ccccc4)CC3)n2C)c1	.	-4	-6	-8	16	.	.	6
O=C(NNC(=O)c1ccccc1[N+](=O)[O-])c1ccccn1	7	2	2	.	-6	i	0	-4
CN(CC(=O)Nc1ccccc1C(F)(F)F)C(=O)C1CCN(C(=O)c2ccc(Cl)cc2)CC1	.	1	1	-7	-4	i	.	1
COc1cc(C(O)c2nc3ccccc3n2C(C)C)cc(OC)c1OC (stereo unspecified)	8	2	3	7	-10	i	17	12
COc1ccccc1C(=O)NNC1=C(C(=O)C(F)(F)F)CCC1	8	0	7	-9	.	i	-4	-2
Cc1cccnc1NCc1ccc(O)c2ncccc12	6	-2	-5	-28	-14	i	-6	56
Oc1c(C(Nc2cccc(C(F)(F)F)c2)c2ccncc2)ccc2cccnc12 (stereo unspecified)	7	-2	-11	.	14	i	19	54
Cc1nc2nc(SCC(=O)NCCCN3CCCCC3)nn2c(C)c1Cc1ccccc1	5	-1	-2	10	12	.	1	3

Continued.
SMILES	eIF4H FP inh	MT1-MMP act inh	MT1-MMP act inh RFP	Yeast UUG start	Env fusion inh	Rce1 inh	PABP FP inh	CSC inhib	others
CN(C)CCCN1C(=O)CSC1c1ccc([N+](=O)[O-])cc1 (stereo unspecified)	-4	-4	1	.	-35	i	-5	-12
O=C(N[C@@H](CCC/[N+]([O-])=C/c1ccccc1)C(=O)O)OCc1ccccc1	.	3	7	-15	6	.	.	.
CC(=O)OCC1OC(OC(C)=O)C(NC(=O)c2cccnc2)C(OC(C)=O)C1OC(C)=O (stereo unspecified)	-4	-10	-2	-7	.	i	-5	13
C/C(=C\c1ccc2c(c1)OCO2)C(=O)c1c(C)cc(C)[nH]c1=O	-4	.	.	.	20	i	18	14
O=C1OC(c2ccc(Br)cc2)=N/C1=C\N1CCCCC1	-2	-3	-3	-26	-252	i	-2	0
COC(=O)C1=C(CSc2nc3ccccc3o2)NC(=O)NC1c1cc(C)ccc1C (stereo unspecified)	4	-8	-8	-1	.	i	0	-8
CCCCc1c(O)nc(SCC(=O)N2CCCCC2)n(-c2ccccc2C)c1=O	1	5	3	.	13	i	-5	-6
COc1ccccc1-c1cnc(C(O)c2ccc(C)cc2C)[nH]1 (stereo unspecified)	.	3	4	-16	10	.	.	.
CCn1ncc(S(=O)(=O)Nc2cccnc2)c1C	14	-4	5	-30	0	i	12	-9
Cn1cc([N+](=O)[O-])c(C(=O)NC2CCCCCCC2)n1	-2	-5	-1	-10	8	.	-3	-7
COCCc1ccc(OC2(C)CCN(Cc3cccn3-c3nccs3)C2)cc1 (stereo unspecified)	.	-1	-3	0	8	.	.	.
CC(=O)Nc1cccc(NC(=O)CS(=O)(=O)c2cn(CC(=O)N3CCOCC3)c3ccccc23)c1	-4	3	3	.	-12	i	4	.
COC(=O)c1cccc(NC(=O)Cc2ccc(OC)cc2)c1C	-10	5	7	-18	-84	i	2	-5
CCCCN1C(=O)c2ccccc2C1C(=O)NC1CCCC1 (stereo unspecified)	-14	9	9	-18	-9	i	-6	3

Ordered by molar mass (smallest number first): 15 of the compounds above.
SMILES	eIF4H FP inh	MT1-MMP act inh	MT1-MMP act inh RFP	Yeast UUG start	Env fusion inh	Rce1 inh	PABP FP inh	CSC inhib	others
Cc1cccnc1NCc1ccc(O)c2ncccc12	6	-2	-5	-28	-14	i	-6	56
CCn1ncc(S(=O)(=O)Nc2cccnc2)c1C	14	-4	5	-30	0	i	12	-9
Cn1cc([N+](=O)[O-])c(C(=O)NC2CCCCCCC2)n1	-2	-5	-1	-10	8	.	-3	-7
CCCCN1C(=O)c2ccccc2C1C(=O)NC1CCCC1 (stereo unspecified)	-14	9	9	-18	-9	i	-6	3
COc1ccccc1-c1cnc(C(O)c2ccc(C)cc2C)[nH]1 (stereo unspecified)	.	3	4	-16	10	.	.	.
CN(C)CCCN1C(=O)CSC1c1ccc([N+](=O)[O-])cc1 (stereo unspecified)	-4	-4	1	.	-35	i	-5	-12
C/C(=C\c1ccc2c(c1)OCO2)C(=O)c1c(C)cc(C)[nH]c1=O	-4	.	.	.	20	i	18	14
COC(=O)c1cccc(NC(=O)Cc2ccc(OC)cc2)c1C	-10	5	7	-18	-84	i	2	-5
COc1ccccc1C(=O)NNC1=C(C(=O)C(F)(F)F)CCC1	8	0	7	-9	.	i	-4	-2
O=C1OC(c2ccc(Br)cc2)=N/C1=C\N1CCCCC1	-2	-3	-3	-26	-252	i	-2	0
O=C(N[C@@H](CCC/[N+]([O-])=C/c1ccccc1)C(=O)O)OCc1ccccc1	.	3	7	-15	6	.	.	.
Oc1c(C(Nc2cccc(C(F)(F)F)c2)c2ccncc2)ccc2cccnc12 (stereo unspecified)	7	-2	-11	.	14	i	19	54
CCCCc1c(O)nc(SCC(=O)N2CCCCC2)n(-c2ccccc2C)c1=O	1	5	3	.	13	i	-5	-6
Cc1nc2nc(SCC(=O)NCCCN3CCCCC3)nn2c(C)c1Cc1ccccc1	5	-1	-2	10	12	.	1	3
CC(=O)Nc1cccc(NC(=O)CS(=O)(=O)c2cn(CC(=O)N3CCOCC3)c3ccccc23)c1	-4	3	3	.	-12	i	4	.

High-throughput results deposited in PubChem by several laboratories.
